NOMO-1 viab = STK33 inhibitor candidate reducing NOMO-1 cell viability; NOMO-1 AML viability, CellTiter-Glo luminescence, 72 h; inhibition, % (no concentration beside the values); actives 7.5% (n = 37,000);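 active = most replicates above 80%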;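 note: wells of about 30 µL received 25 nL stock; 0% = median of vehicle wells and 100% = reference inhibitor level; the first replicate is given; inactives centre near 10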
The depositor's hits bear a star. These rows are one share of the data. The share of hits here may be higher or lower than overall.

canonical_smiles	NOMO-1 viab
Cc1nnc(SCc2nc(-c3ccccc3)no2)n1-c1ccccc1	-11.2
C[C@H]1CN([C@@H](C)CO)C(=O)Cc2cc(NC(=O)CCC(F)(F)F)ccc2O[C@H]1CN(C)S(=O)(=O)c1cn(C)cn1	3.4
COc1ccc(-c2nnc(SCC(=O)Nc3ccc(Br)c(C)c3C)n2C)cc1	21.5
COc1ccc(-c2nn(C)c(=O)c3ccccc23)cc1CNC(=O)c1ccc([N+](=O)[O-])cc1	7.7
COc1ccc(CN(C)C[C@@H]2Oc3ccc(NC(=O)Nc4c(C)noc4C)cc3C(=O)N([C@H](C)CO)C[C@@H]2C)cc1	-4.8
C[C@@H]1CN([C@H](C)CO)C(=O)c2cc(NC(=O)Nc3ccc4c(c3)OCO4)ccc2O[C@H]1CN(C)C(=O)NC1CCCCC1	3.7
CS(=O)(=O)N(CC(=O)NC1CC1)c1ccccc1	32.2
Cc1ccc(S(=O)(=O)Nc2cccc3c2O[C@H](CN(C)Cc2ccc(-c4ccccc4)cc2)[C@H](C)CN([C@H](C)CO)C3=O)cc1	44.8
CNC[C@H]1Oc2ccc(NC(=O)C3CCCCC3)cc2C(=O)N([C@@H](C)CO)C[C@H]1C	-4.9
O=C(O)CCCC=C(c1ccccc1)c1ccccc1	23.9
COc1cc(NS(=O)(=O)c2ccc(NC(=O)c3ccccc3)cc2)nc(OC)n1	28.2
CCOC(=O)c1c(NC(=S)NC(=O)c2ccc3c(c2)OCCO3)sc(C(=O)OC)c1C	-4.9
C[C@H]1CN([C@@H](C)CO)C(=O)c2cc(NS(=O)(=O)c3cccs3)ccc2O[C@@H]1CN(C)S(=O)(=O)c1ccc(F)cc1	18.0
CCN(CC(=O)Nc1cc([N+](=O)[O-])ccc1C)S(=O)(=O)c1ccc(C)cc1	0.5
Cc1cc(C)n2nc(-c3ccc(C(C)(C)C)cc3)cc2n1	29.7
CC(C)(C)c1ccc(OCC(O)Cn2cnc3ccccc32)cc1 (stereo unspecified)	93.1*
Cc1ccc(S(=O)(=O)N(C)C[C@H]2Oc3ccc(NC(=O)Cn4cnnn4)cc3C(=O)N([C@@H](C)CO)C[C@@H]2C)cc1	4.1
CN(CCO)S(=O)(=O)c1cccc(C(=O)O)c1	-6.5
Cc1ccc(S(=O)(=O)Nc2cccc3ccccc23)cc1	48.7
C[C@H](CO)N1C[C@H](C)[C@H](CN(C)C(=O)Nc2ccc3c(c2)OCO3)Oc2ccc(NC(=O)Cc3cn(C)c4ccccc34)cc2CC1=O	17.4
CC(=O)NC1C(=O)Nc2ccccc2S(=O)(=O)C1c1ccccc1 (stereo unspecified)	-13.0
C[C@H]1CN([C@@H](C)CO)C(=O)Cc2cc(NS(=O)(=O)c3cn(C)cn3)ccc2O[C@H]1CN(C)Cc1ccc(Oc2ccccc2)cc1	38.9
Cc1[nH]c2ccccc2c1C(=O)CSc1nnc2ccccn12	-17.8
Clc1ccc(OCCSCc2nc3ccccc3[nH]2)cc1	25.3
C[C@@H]1CN([C@H](C)CO)C(=O)c2cccc(NS(=O)(=O)c3cccs3)c2O[C@H]1CN(C)Cc1ccccc1	55.3
Cc1nnc(SCC(=O)Nc2cc(C(F)(F)F)ccc2Cl)s1	14.9
C[C@@H]1CN([C@H](C)CO)C(=O)c2cc(NC(=O)Nc3cccc4ccccc34)ccc2O[C@H]1CN(C)S(=O)(=O)c1ccccc1	-1.3
COc1ccc(S(=O)(=O)Nc2ccc3c(c2)C(=O)N([C@@H](C)CO)C[C@@H](C)[C@H](CN(C)S(=O)(=O)c2cccs2)O3)cc1	-10.4
Cc1cc(Oc2ccccc2)nc(SCC(N)=O)n1	2.9
Cc1cc([N+](=O)[O-])ccc1NC(=O)CSc1n[nH]c(-c2ccc(Cl)cc2)n1	28.6
O=C(COc1ccccc1)Nc1ccc2oc(-c3cccc(Cl)c3Cl)nc2c1	54.0
C[C@@H]1CN([C@H](C)CO)C(=O)c2cccc(NC(=O)C3CC3)c2O[C@@H]1CN(C)C(=O)Nc1ccccc1	-8.3
COc1ccc(NC(=O)CC2Nc3cccc4cccc(c34)NC2=O)cc1 (stereo unspecified)	13.3
O=C(Nc1cc(S(=O)(=O)c2ccccc2)cs1)c1ccc(Cl)cc1	92.4*
Oc1c(C(Nc2cccnc2)c2ccccc2F)ccc2cccnc12 (stereo unspecified)	115.7*
COc1ccc(CN(C)C[C@@H]2Oc3ccc(NC(=O)C4CC4)cc3CC(=O)N([C@H](C)CO)C[C@@H]2C)cc1	-0.2

Continued, starting with the last 5 of the part before.
canonical_smiles	NOMO-1 viab
C[C@@H]1CN([C@H](C)CO)C(=O)c2cccc(NC(=O)C3CC3)c2O[C@@H]1CN(C)C(=O)Nc1ccccc1	-8.3
COc1ccc(NC(=O)CC2Nc3cccc4cccc(c34)NC2=O)cc1 (stereo unspecified)	13.3
O=C(Nc1cc(S(=O)(=O)c2ccccc2)cs1)c1ccc(Cl)cc1	92.4*
Oc1c(C(Nc2cccnc2)c2ccccc2F)ccc2cccnc12 (stereo unspecified)	115.7*
COc1ccc(CN(C)C[C@@H]2Oc3ccc(NC(=O)C4CC4)cc3CC(=O)N([C@H](C)CO)C[C@@H]2C)cc1	-0.2
CCOc1ccc(Cl)cc1S(=O)(=O)NCc1cccnc1	13.0
COc1ccc(NC(=O)Nc2cccc3c2O[C@@H](CN(C)Cc2ccc(C(=O)O)cc2)[C@H](C)CN([C@H](C)CO)C3=O)cc1	1.3
C[C@H]1CN([C@@H](C)CO)C(=O)c2cc(NC(=O)CCCN(C)C)ccc2O[C@@H]1CN(C)S(C)(=O)=O	5.3
C[C@H]1CN([C@@H](C)CO)C(=O)c2cccc(NC(=O)c3ccncc3)c2O[C@H]1CN(C)Cc1ccc(-c2ccccc2)cc1	24.1
CC(C)NC(=O)Nc1ccc2c(c1)C(=O)N([C@H](C)CO)C[C@@H](C)[C@H](CN(C)C(=O)Nc1cccc3ccccc13)O2	-1.4
COc1ccc(S(=O)(=O)N(C)C[C@@H]2Oc3c(NC(=O)c4cc(C)nn4C)cccc3C(=O)N([C@H](C)CO)C[C@@H]2C)cc1	19.7
COc1ccc(CN(C(=O)c2oc3cc(C)c(C)cc3c2C)C2CCS(=O)(=O)C2)cc1OC (stereo unspecified)	-2.9
CC(C)NC(=O)N(C)C[C@@H]1Oc2ccc(NC(=O)CCN3CCOCC3)cc2C(=O)N([C@H](C)CO)C[C@H]1C	9.2
C[C@@H]1CN([C@H](C)CO)C(=O)c2cc(NC(=O)Nc3ccc(F)cc3)ccc2O[C@@H]1CN(C)Cc1ccncc1	26.6
O=C(CSc1nnc(-c2ccccc2)n1-c1ccccc1)c1ccc(F)cc1	20.3
CC(C)NC(=O)N(C)C[C@@H]1Oc2ccc(NC(=O)C3CC3)cc2C(=O)N([C@H](C)CO)C[C@@H]1C	-4.3
Cc1ccc(S(=O)(=O)N(C)C[C@@H]2Oc3ccc(NC(=O)Nc4cccc5ccccc45)cc3C(=O)N([C@H](C)CO)C[C@H]2C)cc1	-2.5
Cc1ccc(OCC(=O)Nc2cccc(NC(=O)c3ccccc3)c2)cc1C	10.0
Cc1noc(C)c1NC(=O)Nc1ccc2c(c1)C(=O)N([C@H](C)CO)C[C@@H](C)[C@H](CN(C)S(C)(=O)=O)O2	-9.8
Cc1ccccc1-c1cc(C(=O)NCCCn2ccnc2)c2cc(Cl)ccc2n1	-19.6
CCOc1ccc(Oc2nc(N3CCOCC3)nc(N3CCOCC3)n2)nn1	24.0
COc1ccc(-c2noc(CSc3nnc(-c4cccs4)n3-c3ccccc3)n2)cc1OC	16.0
C[C@@H]1CN([C@H](C)CO)C(=O)Cc2cc(NC(=O)CCC(F)(F)F)ccc2O[C@H]1CN(C)CC1CCCCC1	26.7
C[C@H](CO)N1C[C@H](C)[C@H](CN(C)C)Oc2ccc(NC(=O)C3CCCCC3)cc2C1=O	-8.7
C[C@@H]1CN([C@H](C)CO)C(=O)c2cccc(NC(=O)c3nc4ccccc4s3)c2O[C@@H]1CN(C)C(=O)Nc1ccc2c(c1)OCO2	4.7
Cc1ccccc1OCC1CN(CN(CC(C)C)CC(C)C)C(=O)O1 (stereo unspecified)	21.3
C[C@H](CO)N1C[C@H](C)[C@@H](CN(C)C(=O)Nc2ccc3c(c2)OCO3)Oc2ccc(NC(=O)Cc3ccccc3)cc2C1=O	13.6
C[C@@H]1CN([C@H](C)CO)C(=O)c2cccc(NC(=O)c3cnccn3)c2O[C@@H]1CN(C)Cc1ccc(C(F)(F)F)cc1	3.7
C[C@H]1CN([C@@H](C)CO)C(=O)Cc2cc(NS(=O)(=O)c3cn(C)cn3)ccc2O[C@H]1CN(C)Cc1ccncc1	-6.2
CC(C)NC(=O)Nc1ccc2c(c1)C(=O)N([C@H](C)CO)C[C@@H](C)[C@H](CN(C)C(=O)Nc1ccccc1)O2	-2.6
COc1cc2c(cc1OC)C(=O)OC2	1.2
Cc1ccc(-c2nc3cc(Cl)ccc3o2)cc1NC(=O)COc1ccc(Br)cc1	35.9
COc1ccc(NC(=O)CNS(=O)(=O)c2ccccc2)cc1OC	33.9
C=C1CC/C=C(/C(=O)O)C[C@H](O)C2C1CC2(C)C (stereo partly specified)	5.9
C[C@@H]1CN([C@H](C)CO)C(=O)Cc2cc(NC(=O)Nc3ccc4c(c3)OCO4)ccc2O[C@@H]1CN(C)Cc1ccc(C(F)(F)F)cc1	81.0*
C[C@@H]1CN([C@H](C)CO)C(=O)Cc2cc(NS(=O)(=O)c3ccc(F)cc3)ccc2O[C@H]1CN(C)S(=O)(=O)c1ccc(F)cc1	-5.2
O=C(COc1ccc2ccccc2c1)Nc1ccc(O)cc1C(=O)O	8.5
C[C@@H]1CN([C@@H](C)CO)C(=O)c2cc(NC(=O)Nc3cccc4ccccc34)ccc2O[C@H]1CN(C)S(=O)(=O)c1cn(C)cn1	12.8
Cc1noc(C)c1NC(=O)N(C)C[C@@H]1Oc2ccc(NC(=O)Nc3ccc(F)cc3)cc2C(=O)N([C@H](C)CO)C[C@H]1C	34.9
COc1ccc(Cl)cc1C(=O)N(Cc1nc(-c2ccc(C)cc2)no1)C(C)C	40.7
COc1ccc(CN(C)C[C@H]2Oc3ccc(NC(=O)Nc4ccc5c(c4)OCO5)cc3C(=O)N([C@@H](C)CO)C[C@@H]2C)cc1	22.5
C[C@H](CO)N1C[C@H](C)[C@@H](CN(C)C(=O)Nc2ccc(F)cc2)Oc2ccc(NC(=O)Nc3ccc(C(F)(F)F)cc3)cc2C1=O	28.9
Cc1noc(C)c1S(=O)(=O)Nc1ccc2c(c1)C(=O)N([C@@H](C)CO)C[C@H](C)[C@H](CN(C)CC1CC1)O2	12.1
COc1ccc(OCC(O)Cn2cnc3ccccc32)cc1 (stereo unspecified)	23.3
COc1ccc(S(=O)(=O)N(C)C[C@H]2Oc3ccc(NS(=O)(=O)c4ccc(F)cc4)cc3C(=O)N([C@H](C)CO)C[C@H]2C)cc1	9.3
C[C@@H]1CN([C@H](C)CO)C(=O)Cc2cc(NC(=O)Nc3ccc4c(c3)OCO4)ccc2O[C@H]1CN(C)Cc1ccc2c(c1)OCO2	0.9
C[C@@H]1CN([C@@H](C)CO)C(=O)c2cccc(NC(=O)Nc3ccc4c(c3)OCO4)c2O[C@@H]1CN(C)C(=O)Nc1ccc2c(c1)OCO2	55.0
Cc1ccc(S(=O)(=O)Nc2ccc3c(c2)CC(=O)N([C@@H](C)CO)C[C@H](C)[C@H](CN(C)C)O3)cc1	-0.6
COc1ccc(S(=O)(=O)Nc2cccnc2)cc1C(=O)O	-7.7
C[N+]1(CC(O)CN2CCCC2=O)CCCCCC1 (stereo unspecified)	-2.0
Cc1noc(C)c1NC(=O)N(C)C[C@H]1Oc2ccc(NC(=O)NC3CCCCC3)cc2CC(=O)N([C@@H](C)CO)C[C@@H]1C	2.5
Cc1c(C)n(Cc2ccc(Br)cc2)c(=O)n(Cc2ccc(Br)cc2)c1=O	31.6
C[C@H]1CN([C@@H](C)CO)C(=O)c2cccc(NC(=O)C3CCCCC3)c2O[C@@H]1CN(C)Cc1ccc(C(F)(F)F)cc1	91.0*

Quoted from above, 2 compounds:
canonical_smiles	NOMO-1 viab
C[C@H](CO)N1C[C@H](C)[C@@H](CN(C)C(=O)Nc2ccc(F)cc2)Oc2ccc(NC(=O)Nc3ccc(C(F)(F)F)cc3)cc2C1=O	28.9
Cc1noc(C)c1S(=O)(=O)Nc1ccc2c(c1)C(=O)N([C@@H](C)CO)C[C@H](C)[C@H](CN(C)CC1CC1)O2	12.1

More entries follow:
canonical_smiles	NOMO-1 viab
COc1ccc(NC(=O)Nc2ccc3c(c2)C(=O)N([C@H](C)CO)C[C@H](C)[C@H](CN(C)C(=O)Nc2ccc4c(c2)OCO4)O3)cc1	-7.1
COc1ccc(S(=O)(=O)Nc2cccc3c2O[C@@H](CN(C)S(=O)(=O)c2ccc(C)cc2)[C@H](C)CN([C@H](C)CO)C3=O)cc1	-10.4
COc1nnc(-c2ccc(N3CCOCC3)c(NC(=O)COc3ccc(C)cc3)c2)c2ccccc12	-2.4
NC(=NC(=O)c1cnccc1C(F)(F)F)c1ccccn1	-16.7
Cc1ccc(NCC(O)CSc2nc3c(cc2C#N)CCCC3)cc1 (stereo unspecified)	-21.8
C[C@@H]1CN([C@H](C)CO)C(=O)c2cc(NS(=O)(=O)c3ccc(Cl)cc3)ccc2O[C@@H]1CN(C)C(=O)Nc1ccc2c(c1)OCO2	-10.1
COc1ccc(-c2cc(C(F)(F)F)c(C#N)c(SCC(=O)Nc3ccccc3F)n2)cc1	-12.4
CC(C)n1c(SCCC(=O)O)nc2ccccc21	-8.6
C[C@@H]1CN([C@@H](C)CO)C(=O)c2cccc(NC(=O)C3CCOCC3)c2O[C@H]1CN(C)Cc1ccc(C(=O)O)cc1	-10.8
COc1ccc(CN(C)C[C@H]2Oc3c(NC(=O)C4CCCCC4)cccc3C(=O)N([C@H](C)CO)C[C@@H]2C)cc1	47.2
COc1ccc(S(=O)(=O)N(C)C[C@H]2Oc3c(NC(=O)NC4CCCCC4)cccc3C(=O)N([C@@H](C)CO)C[C@H]2C)cc1	28.2

High-throughput results (PubChem BioAssay)
